RE007 growth inh = less growth of the S. pombe RE007 Vpr strain | AID 651644 | 0.21% of 360,000 active | S. pombe RE007 Vpr strain, BacTiter-Glo ATP luminescence, 24 h; control for the full effect not named in the record | Potency, µM (titrated, usually from 92.2 µM), without a hit: at the top dose activity change, negative = less growth; active = well fitted falling curve with a large enough effect; inconclusive = small, poorly fitted or top-dose-only effect; inactive = no such curve, though single readings can be large or run the other way;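 also: % is scaled to controls: 0 for no effect and ±100 for the full control effect; nearly all actives have a fitted effect of over 50% in size; the assay follows cell death caused by Vpr and the record does not say whether a fall means rescue or toxicity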
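Fission yeast RE007 carrying one integrated HIV-1 vpr copy, seeded at OD 0.01 in PMG+AL medium with 23 nL pinned compound. Grown 24 h at 30 degrees; viability read by BacTiter-Glo luminescence after 5 min.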
Cruzain inh noDet = inhibitors of Trypanosoma cruzi cruzain without detergent | P25779 | purified cruzain, Z-FR-AMC fluorescence, no detergent | Potency, µM, for inactives: max response, negative = inhibition, most hits filed as inhibitors | 2.3% of 200,000 active; active = well fitted curve in the direction sought with a large enough effect; inconclusive = small, poorly fitted or top-dose-only effect, or another doubt; inactive = no such curve, though single readings can be large; an effect the other way counts as inactive or inconclusive;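 also: plate controls were enzyme without inhibitor for no effect and buffer without enzyme for full effect; nearly all actives have a fitted effect of over 40% in size; top concentration of the series not given in the record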
Target sequence (P25779 123-467 limits assumed): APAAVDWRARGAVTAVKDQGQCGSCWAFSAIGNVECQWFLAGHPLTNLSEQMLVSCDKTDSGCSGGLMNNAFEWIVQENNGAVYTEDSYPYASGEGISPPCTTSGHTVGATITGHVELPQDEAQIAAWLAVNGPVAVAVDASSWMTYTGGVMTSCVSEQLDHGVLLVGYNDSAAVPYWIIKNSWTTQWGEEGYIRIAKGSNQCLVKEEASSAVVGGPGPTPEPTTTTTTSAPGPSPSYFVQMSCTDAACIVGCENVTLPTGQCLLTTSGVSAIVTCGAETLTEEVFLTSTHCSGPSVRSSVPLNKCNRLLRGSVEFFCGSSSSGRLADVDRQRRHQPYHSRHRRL
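Purified cruzain at 1.5 nM, pre-incubated 15 min with compound at room temperature in 100 mM sodium acetate pH 5.5, 5 mM DTT, 0.00005% Triton X-100. Reaction started with 2 uM Z-FR-AMC; AMC fluorescence increase over 60 s gives rate.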
Lassa entry inh = inhibitors of Lassa virus binding or cell entry; AID 540256; Potency, µM (highest dose often 37.9 µM), without a hit: at the top dose activity change, negative = inhibition, most hits filed as inhibitors; 1.2% of 300,000 active; Lassa virus pseudotype entry inhibition, cell reporter; control for the full effect not named in the record; active means well fitted inhibition curve with a large enough effect; inconclusive means small, poorly fitted or top-dose-only effect, or effect the other way; inactive means flat fitted curve, though single readings scatter; tested in HEK293 cells; also: % is scaled to controls: 0 for no effect and ±100 for the full control effect; nearly all actives have a fitted effect of over 50% in size; luciferase read-out
NS1 function inh = blocks influenza NS1 protein function. AID 2326. S. cerevisiae slowed by influenza A NS1, growth recovery by OD600. Potency, µM (doses to about 46.1 µM), for the others: at the highest dose activity, positive = more growth. 0.4% of 270,000 active; also: actives are rising curves; nearly all actives have a fitted effect of over 50% in size
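Read-out: OD600 growth recovery of NS1-expressing budding yeast. Cells grown overnight at 30C in -URA glucose medium, washed, resuspended and diluted 1:100 in 2% galactose assay medium, pH 6.0. Same strain lacking NS1 served as positive control.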
Cruzain inh Det = cruzain (T. cruzi) inhibition with detergent. purified cruzain, Z-FR-AMC fluorescence, 0.01% Triton. Potency, µM, without a hit: max response, negative = inhibition, usual class: inhibitors. 0.43% of 200,000 active. P25779; active = well fitted curve in the direction sought with a large enough effect; inconclusive = small, poorly fitted or top-dose-only effect, or another doubt; inactive = no such curve, though single readings can be large; an effect the other way counts as inactive or inconclusive;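 also: plate controls were neutral wells for no effect and buffer without enzyme for full effect; nearly all actives have a fitted effect of over 40% in size; top concentration of the series not given in the record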
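Sodium acetate buffer (100 mM, pH 5.5) containing 5 mM DTT and 0.01% Triton X-100 hosted 1.5 nM cruzain and test compound for 15 min at room temperature. Cleavage of 2 uM Z-FR-AMC was then tracked by fluorescence.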
StopGo reporter = FMDV 2A StopGo reporter, luciferase signal | 1.2% of 410,000 active | AID 1159524 | Potency, µM (doses to about 57.9 µM), for the others: at the highest dose signal change, negative = less light | human cells with a luciferase reporter of 2A StopGo recoding; control for the full effect not named in the record; active = well fitted falling curve with a large enough effect; inconclusive = small, poorly fitted or top-dose-only effect; inactive = no such curve, though single readings can be large or run the other way; tested in HEK293T cells; also: % is scaled to controls: 0 for no effect and ±100 for the full control effect; nearly all actives have a fitted effect of over 45% in size; luciferase light after 4 h
SARS PLP yeast = blocks SARS-CoV papain-like protease in a yeast assay; 0.19% of 330,000 active; Potency, µM (doses to about 32.9 µM), without a hit: at the top dose activity, positive = growth rescue; S. cerevisiae expressing SARS-CoV PLpro, growth rescue; control for the full effect not named in the record; also: 0% is about no effect; nearly all actives have a fitted effect of over 55% in size; growth read by luminescence after 48 h
MARV entry inh = Marburg virus entry inhibition; Marburg virus pseudotyped entry inhibition, cell reporter; control for the full effect not named in the record; about a third of the inactives were read at about 46 µM; Potency, µM (highest dose often 37.8 µM), without a hit: at the top dose activity change, negative = inhibition, usual class: inhibitors; 1.8% of 300,000 active; active = well fitted inhibition curve with a large enough effect; inconclusive = small, poorly fitted or top-dose-only effect, or effect the other way; inactive = flat fitted curve, though single readings scatter; tested in HEK293 cells; about a fifth of its hits are not listed in these tables; also: % is scaled to controls: 0 for no effect and ±100 for the full control effect; luciferase read-out
The depositor's hits bear a star; u = inconclusive; x = no result given; & = joins results of further samples; [ ] = remark or other dose. Unless noted, calls follow the shape of the dose curve; as a rule, active means well fitted rising curve with a large enough effect; inconclusive means small, poorly fitted or top-dose-only effect; inactive means no such curve, though single readings can be large or run the other way. Potency is read from the fitted curve at half-maximal effect.

SMILES	RE007 growth inh	Cruzain inh noDet	Lassa entry inh	NS1 function inh	Cruzain inh Det	StopGo reporter	SARS PLP yeast	MARV entry inh
O=C(CSc1ccc2ccccc2c1)NCCc1ccc(O)c(O)c1	14%	x	u	x	x	u	-1%	-16%[46.1 µM]
Cc1ccc(S(=O)(=O)CCC(=O)OCc2ccc(Cl)c(Cl)c2)cc1	-1%	-7%	6%	12%	-9.0%	-8%	24%	-5%
O=C(O)c1nn(Cc2ccc(Cl)cc2Cl)c2ccccc12	17%	13%&5%	6%	-42%&-2%	-8.2%&-12%	-14%&-14%	-2%	u
Cc1cc(C(=O)N/N=C/c2ccc3c(c2)OCO3)c(C)n1-c1ccc(F)cc1	-16%	x	6%	11%	x	46%[activator]	-2%	-13%[46.1 µM]
CC(C)n1nc(CC(=O)O)c2ccccc2c1=O	6%	x	u	6%	x	-8%	0%	u
COc1cc(OC)cc(-n2nc(C(=O)N3CC(C)CC(C)C3)c3ccccc3c2=O)c1 (stereo unspecified)	10%	u	-3%	1%	-8.1%	11%	14%	-18%
Cc1ccc(CNC(=O)c2c(O)nc3c(C)cccn3c2=O)cc1	x	-10%	x	x	0.8%	13%	x	9%[46.1 µM]
COc1ccccc1NC(=O)c1nnn(-c2ccc(F)cc2)c1C	x	3%	7%[46.1 µM]	x	0.2%	-2%	x	u
COc1cc2c(cc1OC)CN(CC(=O)Nc1ccccc1C(=O)NCc1ccccc1)CC2	3%	x	-21%[46.1 µM]	5%	x	-27%	0%	u
O=C(Cc1cccs1)N/N=C/C=C\c1ccccc1[N+](=O)[O-]	-14%	x	u	x	x	79%[activator]	2%	14%[46.1 µM]
Cc1nc(CN2CCOCC2)cc(=O)[nH]1	-16%	4%	5%	4%	4.3%	-16%	0%	21%
COc1cccc(C(=O)N/N=C2\SCC(=O)N2Cc2ccc3c(c2)OCO3)c1	9%	-7%	-6%	-2%	-5.9%	10%	-2%	0%
CCOC(=O)C1CCN(C(=O)CN(c2cccc(OC)c2)S(=O)(=O)c2ccccc2)CC1	-6%	22%	-16%	-1%	3.1%	-14%	4%	-28%
O=C(COC(=O)/C=C/c1ccccc1)NCc1ccccc1Cl	-6%	x	6%[46.1 µM]	x	x	-22%	0%	u
CCOc1ccc(S(=O)(=O)NCCc2csc(-c3ccc(Cl)cc3)n2)cc1	x	10%	-15%[46.1 µM]	x	-11%	-25%	x	x
CCOC(=O)C1CCN(CCC(=O)Nc2ccccc2)CC1	23%	-9%	-4%	5%	0.6%	-5%	9%	-1%
NNc1nc2cccnc2n(CCNc2ncc(C(F)(F)F)cc2Cl)c1=O	3%	x	15%	x	x	u	1%	6%[46.1 µM]
O=[N+]([O-])c1cccc(C=NN2CCCCCC2)c1	3%	x	17%	x	x	48%[activator]	x	3%
C=CCOc1cccc(C(=O)N2CCCC(Nc3ccc(F)cc3)C2)c1 (stereo unspecified)	6%	x	3%	x	x	u	x	u
Nc1nc2c([N+](=O)[O-])cccc2s1	-2%	x	x	0%	x	-2%	-2%	x
Cc1ccc(C(C)NC(=S)NCc2ccc(F)cc2)c(C)c1 (stereo unspecified)	-4%	x	-21%	-46%	x	9%	15%	u
NS(=O)(=O)c1ccc(NC(=S)NC(=O)c2cccs2)cc1	8%	x	x	0%	x	27%	0%	x
CCc1ccc(S(=O)(=O)NC(CC(=O)O)c2ccccc2)cc1 (stereo unspecified)	-7%	-9%	2%	10%	-0.5%	x	7%	-8%
Cc1ccc(CNc2ccc3c(c2)ncn3C(C)C)cc1	-12%	x	x	5%	x	64%[activator]	1%	x
COCCOC(=O)c1c(C)oc2c1cc(NS(=O)(=O)c1ccc(Cl)c(C)c1)c1ccccc12	x	1%	u	x	-4.3%	-11%	x	u
CCCNC(=O)c1c(N)n(-c2ccc3c(c2)OCO3)c2nc3ccccc3nc12	2%	u	-2%	0%	3.0%	-13%	-14%	1%
Cc1cccc[n+]1CC(=O)c1ccccc1	-5%	x	10%	1%	x	10%	0%	2%
O=C(Nc1ccc(N2CCOCC2)c(Cl)c1)c1cc(F)c(F)cc1Cl	-9%	-14%	5%	-1%	-2.8%	-15%	-6%	26%
O=C(Nc1ccccc1)NN(C(=O)CCl)c1ccccc1	3%	x	u	10%	x	20µM*	22%	u
O=C(C[n+]1cc(-c2ccccc2)n2c1CCC2)N1c2ccccc2Sc2ccccc21	8%	9%	5%	12%	-0.2%	u	0%	-18%
COCCN(C(=O)Cn1nnc2ccccc21)C(C(=O)NC1CCCC1)c1ccc(OC)cc1OC (stereo unspecified)	0%	-3%	0%	-5%	-1.5%	18%	14%	-2%
C/C(Cl)=C/CSc1nc2c(c(=O)[nH]c(=O)n2C)n1C(C)C	1%	4%	u	-11%	-3.0%	-8%	-14%	-14%
C(=C\c1nc(-c2ccccc2)no1)/c1ccccc1	3%	-5%	u	-5%	-3.9%	-10%	7%	u

6 consecutive records out of the list so far, quoted:
SMILES	RE007 growth inh	Cruzain inh noDet	Lassa entry inh	NS1 function inh	Cruzain inh Det	StopGo reporter	SARS PLP yeast	MARV entry inh
Cc1cccc[n+]1CC(=O)c1ccccc1	-5%	x	10%	1%	x	10%	0%	2%
O=C(Nc1ccc(N2CCOCC2)c(Cl)c1)c1cc(F)c(F)cc1Cl	-9%	-14%	5%	-1%	-2.8%	-15%	-6%	26%
O=C(Nc1ccccc1)NN(C(=O)CCl)c1ccccc1	3%	x	u	10%	x	20µM*	22%	u
O=C(C[n+]1cc(-c2ccccc2)n2c1CCC2)N1c2ccccc2Sc2ccccc21	8%	9%	5%	12%	-0.2%	u	0%	-18%
COCCN(C(=O)Cn1nnc2ccccc21)C(C(=O)NC1CCCC1)c1ccc(OC)cc1OC (stereo unspecified)	0%	-3%	0%	-5%	-1.5%	18%	14%	-2%
C/C(Cl)=C/CSc1nc2c(c(=O)[nH]c(=O)n2C)n1C(C)C	1%	4%	u	-11%	-3.0%	-8%	-14%	-14%

Source: PubChem BioAssay

No enrichment for hits; 4.7% or so of the library scored in one or more.
